Bioassay records (PubChem)
YopH inh = blocks Yersinia enterocolitica YopH tyrosine phosphatase. fluorescence Ex485/Em525. actives 0.16% (n = 140,000). AID 898. inhibition, %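 (about 10 µM by stock and volumes)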;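 active = inhibition of 50% or more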;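 note: controls were vehicle for no effect and minimum signal wells for full effect; inactives centre near -20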
Mtb bLac sens = beta-lactam sensitization of Mtb H37Rv. M. tuberculosis H37Rv growth with meropenem, percent inhibition; hits of this screen are not shown here. inhibition, % at 25 µM. actives 0.27% (n = 330,000);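 active = about 74% or more and at least 40 points above the plate without the antibiotic, then above 30% in a dose series; inconclusive = first-round hits that could not be retested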;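 note: growth measured after seven days incubation then overnight dye step; 0% = bacteria only wells and 100% = bacteria with antibiotic; twin plates without the antibiotic show which effects depend on it; some results filed as inactive read as strong as hits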
RecA splice inh = inhibitors of M. tuberculosis RecA intein splicing; inhibition, %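 (about 9 µM by stock and volumes)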; actives 0.75% (n = 290,000); cell-free RecA intein splicing, fluorescence; in the data active = inhibition above about 30%; inconclusive = no clear call, values can overlap the other calls;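 note: 0% = vehicle wells and 100% = reference inhibitor control wells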
Target sequence (P9WHJ3 whole entry, looked up, canonical isoform): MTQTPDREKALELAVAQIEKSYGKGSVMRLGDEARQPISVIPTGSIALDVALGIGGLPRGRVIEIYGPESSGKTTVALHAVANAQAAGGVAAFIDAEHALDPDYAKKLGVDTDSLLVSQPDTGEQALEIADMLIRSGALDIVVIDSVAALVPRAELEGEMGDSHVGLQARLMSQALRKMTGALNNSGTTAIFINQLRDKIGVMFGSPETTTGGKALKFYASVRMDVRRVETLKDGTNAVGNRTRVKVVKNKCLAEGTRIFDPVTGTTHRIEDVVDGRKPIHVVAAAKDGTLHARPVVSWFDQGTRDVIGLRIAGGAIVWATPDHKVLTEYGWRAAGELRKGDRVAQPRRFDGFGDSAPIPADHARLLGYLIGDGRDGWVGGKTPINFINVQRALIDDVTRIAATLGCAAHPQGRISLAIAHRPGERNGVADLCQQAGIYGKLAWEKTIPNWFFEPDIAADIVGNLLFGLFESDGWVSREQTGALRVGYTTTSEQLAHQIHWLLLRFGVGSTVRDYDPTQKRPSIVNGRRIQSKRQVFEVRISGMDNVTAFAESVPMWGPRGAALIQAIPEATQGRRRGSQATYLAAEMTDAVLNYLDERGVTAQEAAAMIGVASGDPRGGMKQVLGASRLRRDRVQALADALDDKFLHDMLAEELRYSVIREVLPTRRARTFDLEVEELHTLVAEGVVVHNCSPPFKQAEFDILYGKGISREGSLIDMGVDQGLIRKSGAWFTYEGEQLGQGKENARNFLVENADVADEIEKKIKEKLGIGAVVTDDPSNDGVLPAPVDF
Arbovirus anti = blocks arbovirus infection | AID 1251 | inhibition, % at 10 µM | actives 0.37% (n = 200,000) | arbovirus infection cell-based antiviral screen;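 active = inhibition from about 30%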;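 note: bluetongue infection of BSR cells; cell survival read as ATP light after 72 h; 0% = infected wells without compound and 100% = uninfected wells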
Mtb growth = M. tuberculosis H37Rv growth inhibitors, H37Rv strain (AID 1626) | actives 0.95% (n = 220,000) | inhibition, % at 10 µM, or IC50 in µM where a hit was titrated | M. tuberculosis H37Rv growth inhibition; higher % means a stronger effect;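 active = confirmed in a dose series; inconclusive = inhibition above 80% but not taken into the dose series; inactive = below 80% or under 30% at every dose of the series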;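 note: bacteria incubated seven days before Alamar blue readout; 0% = bacteria only wells and 100% = bacteria with antibiotic wells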
Arbovirus anti repeat = recorded beside Arbovirus anti, whose call it bears; inhibition, %; measured here: 10K subset replicate screen; many hits read low in the repeat;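 first of two repeat runs on a subset; 0% = infected and 100% = uninfected wells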
An asterisk follows results filed as active; ? = inconclusive; . = not tested or not shown. Some of the compounds tested; the hit share may differ from the screen's.

SMILES | YopH inh | Mtb bLac sens | RecA splice inh | Arbovirus anti | Mtb growth | others
COc1ccc(/C=N/NC(=O)C[n+]2ccccc2)c(OC)c1OC | -11 | 6 | -5.9 | -6 | .
CN1CCN(CCc2nc3cc(NC(=O)COc4ccc([N+](=O)[O-])cc4)ccc3n2C)CC1 | . | -3 | 2.0 | . | .
Cc1nn(C)c(C)c1C1C(C#N)=C(N)Oc2n[nH]c(C)c21 (stereo unspecified) | 0 | -1 | 43* | -4 | 6%
Cc1nonc1NC(=O)c1oc2ccccc2c1C | . | -4 | -0.3 | . | .
CCNC(=O)NC(=O)C(C)OC(=O)C1CCN(S(=O)(=O)c2ccc(C)c(C)c2)CC1 (stereo unspecified) | -26 | 0 | -0.5 | 3 | 4%
CCOC(=O)C/C(C)=N/NC(=O)CN(c1ccc(Br)cc1)S(=O)(=O)c1ccccc1 | -25 | -12 | 15 | -7 | -8%
O=C1C(c2ccccc2)C(c2ccccc2)NC(c2ccccc2)C1c1ccccc1 (stereo unspecified) | 3 | 8 | -1.3 | 6 | -4%
CC(=O)Nc1cc(C(=O)N2CCc3ccccc3C2)ccc1Sc1ccc(C)cc1 | -22 | -3 | 12 | 18 | 2%
COc1ccc(C(=O)Nc2ccccc2-c2nnn(CC(=O)NCc3ccco3)n2)cc1 | -33 | 12 | -1.0 | 4 | -12% | Arbovirus anti repeat=-7
Cc1nnc(SCC(=O)NNC(=O)COc2ccc(Cl)cc2)s1 | . | -6 | -3.2 | 24 | -7%
CC(C)Sc1snnc1-c1ccccc1 | . | 0 | 1.0 | 1 | 10%
CC(=O)Nc1nc(C2CC2)cc(-c2ccccc2)c1C#N | . | -7 | -2.4 | -7 | -1%

Grouped by structure: the compounds so far containing a halogen.
SMILES | YopH inh | Mtb bLac sens | RecA splice inh | Arbovirus anti | Mtb growth | others
CCOC(=O)C/C(C)=N/NC(=O)CN(c1ccc(Br)cc1)S(=O)(=O)c1ccccc1 | -25 | -12 | 15 | -7 | -8%
Cc1nnc(SCC(=O)NNC(=O)COc2ccc(Cl)cc2)s1 | . | -6 | -3.2 | 24 | -7%

Following part:
SMILES | YopH inh | Mtb bLac sens | RecA splice inh | Arbovirus anti | Mtb growth | others
COc1ccc(CCNC(=O)CSc2cc(=O)[nH]c(N)n2)cc1OC | -27 | -4 | -0.8 | -2 | 2%
C=CCN1CCN(C(=O)c2ccc3c(c2)OCO3)CC1 | . | -17 | -1.1 | . | .
N#Cc1ccc(C(=O)CN2CCN(c3ccccc3)CC2)cc1 | . | -3 | -0.3 | . | .
Cc1ccccc1OP(N)(=O)Oc1ccccc1C | . | -4 | 2.6 | 1 | 2%
OCCN1C2CCC1CC(O)(c1ccc(F)cc1)C2 (stereo unspecified) | -21 | -1 | -2.3 | 6 | 3%
COc1ccc(CN2CC(=O)N(c3ccc(C)cc3C)C2=S)cc1OC | . | 31 | -3.1 | 1 | 11%
CC(C)(C)c1csc(N/N=C/c2ccc(O)cc2)n1 | . | 98 | 5.5 | . | .
CCc1cccc(C)c1NC(=O)C1CCCN(S(C)(=O)=O)C1 (stereo unspecified) | . | -3 | -1.8 | . | .
O=C(NC1CC2CCCC(C1)N2C(=S)Nc1ccccc1Cl)C1CC1 (stereo unspecified) | . | 8 | 1.4 | . | .
COc1ccc(/C=C/C(=O)NCC(=O)N/N=C/c2cc(Br)ccc2OC)cc1 | 3 | -3 | 1.3 | -7 | 3%
CCc1nc2sc3c(c2c(=O)o1)CCCC3 | 7 | -2 | 0.1 | 9 | .
COc1ccccc1NC(=O)CCC(=O)Nc1ccccc1OC | 2 | 0 | 1.6 | -1 | 2%
Cc1cccc(C)c1NC(=O)NC1(C(=O)NCC2CCCO2)CCCCC1 (stereo unspecified) | . | 4 | -0.3 | . | .
CCc1ccc(N2C(=O)CN(Cc3ccccc3)C2=S)cc1 | . | -4 | 2.9 | . | .
O=C(CSc1ccc(-c2ccccn2)nn1)Nc1cccc(F)c1 | . | 100 | -9.7 | . | .
COc1cccc(NC(=S)NNC(=O)CCn2cc([N+](=O)[O-])cn2)c1 | . | 4 | -1.7 | 12 | 2%
Cc1c(C(=O)OCC(=O)Nc2ccc(S(N)(=O)=O)cc2)oc2c1ccc1ccccc12 | . | 40 | 1.6 | -1 | 14%
S=C(Nc1ccccc1)Nc1ccccc1Br | . | -9 | -1.0 | . | -3%
O=C(COc1ccccc1)Nc1nnc(S(=O)(=O)Nc2ccccc2)s1 | . | 0 | 3.4 | . | .
CCc1ccccc1N(CC(=O)N1CCCCC1)S(=O)(=O)c1ccccc1 | . | -1 | 0.7 | . | .
COc1cc2c(cc1OC)C(c1ccsc1)CC(=O)N2 (stereo unspecified) | 3 | -3 | 1.1 | 7 | -7%
Cc1cccc(N(CC(=O)N2CCOCC2)S(C)(=O)=O)c1C | 11 | -1 | -3.2 | 1 | -4%
CCOC(=O)c1ccc([N+](=O)[O-])cc1NC(C)=O | -23 | 0 | -5.2 | -5 | -4%
CSc1nc(N)nc(SCC(=O)Nc2ccc(Cl)cc2)c1C#N | -30 | 36 | -1.4 | 6 | -1%
Cc1ccc(S(=O)(=O)N(C)c2ccc(C(=O)NCC(c3cccs3)N3CCOCC3)cc2)cc1 (stereo unspecified) | . | -6 | 2.0 | . | .
NC(=O)CC1Nc2cccc3cccc(c23)NC1=O (stereo unspecified) | -8 | 6 | -2.0 | 1 | -3%
O=C1NCCc2c1[nH]c1ccc([N+](=O)[O-])cc21 | . | 2 | 0.1 | 2 | 6%
CC1CCCN(CCCNC(=O)CN2C(=O)CSc3ccc(S(=O)(=O)N4CCOCC4)cc32)C1 (stereo unspecified) | . | 2 | -2.7 | . | .
CC(=O)c1ccc(N2CCN(S(=O)(=O)c3ccc4c(c3)CC(=O)N4)CC2)cc1 | . | 5 | 0.8 | . | .
C=CCNC(=O)c1onc(CSc2cccc(OCC)c2)c1C(=O)O | -7 | -4 | -0.2 | 3 | -16%
Cc1cc(/N=C/C=C2\N(C)c3ccccc3C2(C)C)n(CCC#N)n1 | -30 | 4 | 7.1 | -1 | 3%
O=C(COc1ccc(S(=O)(=O)N2CCCC2)cc1Cl)N1CCN(c2ccccc2)CC1 | 9 | 4 | 2.9 | 0 | 12%
COc1ccc(/C=C/C(=O)NCCC(=O)N2CCCN(C)CC2)cc1 | . | -1 | -1.8 | 8 | -3%
CCCCN1CC(COc2ccccc2)OC1=O (stereo unspecified) | -23 | -2 | 0.8 | 3 | -4%
COc1ccccc1/C=N/NC(=O)c1ccc(=O)n(C)c1 | -17 | 2 | -3.6 | 1 | -2%
CCCSc1nnc(Cn2c(=O)sc3ccccc32)n1-c1ccccc1 | -28 | ? | 2.3 | 8 | -6% | Arbovirus anti repeat=4

Pulled one by one from the list above (6):
SMILES | YopH inh | Mtb bLac sens | RecA splice inh | Arbovirus anti | Mtb growth | others
COc1ccc(CN2CC(=O)N(c3ccc(C)cc3C)C2=S)cc1OC | . | 31 | -3.1 | 1 | 11%
O=C1C(c2ccccc2)C(c2ccccc2)NC(c2ccccc2)C1c1ccccc1 (stereo unspecified) | 3 | 8 | -1.3 | 6 | -4%
O=C(CSc1ccc(-c2ccccn2)nn1)Nc1cccc(F)c1 | . | 100 | -9.7 | . | .
CN1CCN(CCc2nc3cc(NC(=O)COc4ccc([N+](=O)[O-])cc4)ccc3n2C)CC1 | . | -3 | 2.0 | . | .
Cc1nonc1NC(=O)c1oc2ccccc2c1C | . | -4 | -0.3 | . | .
COc1ccc(CCNC(=O)CSc2cc(=O)[nH]c(N)n2)cc1OC | -27 | -4 | -0.8 | -2 | 2%

(more compounds)
SMILES | YopH inh | Mtb bLac sens | RecA splice inh | Arbovirus anti | Mtb growth | others
CCC(=O)N(CCC1(c2ccccc2OC)CCOC(C(C)C)C1)Cc1ccco1 (stereo unspecified) | . | 4 | 19 | . | -1%
O=C(O)CCC(=O)Nc1nc2nc(-c3ccccc3)cc(-c3ccccc3)n2n1 | -39 | -21 | -2.0 | 4 | .
O=C(c1ccco1)N1CCN(C(c2coc3ccc(Cl)cc3c2=O)c2nnnn2C2CCCC2)CC1 (stereo unspecified) | -31 | 4 | 2.4 | . | 16%
Cc1c(C#N)c(O)[nH]c(=O)c1N=Nc1ccc(Br)cc1C(=O)O | . | 1 | -0.5 | . | .
CSc1nc(Cl)c(Cc2ccc(OCC(C)C)cc2)c(N2CCOCC2)n1 | -23 | 22 | -0.8 | 22 | 5%
CCCCN1C(=O)NC(=O)C2(Cc3cc(C)ccc3N(C)C2)C1=O (stereo unspecified) | -33 | -11 | -2.5 | 2 | -13%
COc1ccc(NC(=S)Nc2cc(C)cc(C)n2)cc1OC | -24 | 8 | 1.1 | -5 | 5%
COC(=O)CN(C(=S)Nc1ccc(F)cc1)C1CC(=O)N(c2ccccc2)C1=O (stereo unspecified) | 15 | -5 | 1.6 | -8 | -11%
CCOC(=O)C1CCN(Cc2nc3ccc([N+](=O)[O-])cc3c(=O)n2-c2ccc(OC)cc2OC)CC1 | . | -4 | -4.4 | 3 | 2%
Cc1cccc(N2CCN(C(c3ccccc3)c3nnnn3C(C)(C)C)CC2)c1C (stereo unspecified) | -2 | 5 | 13 | -4 | .
COc1cccc(C(=O)N2C(C(=O)O)CSC2c2ccccc2Cl)c1 (stereo unspecified) | -54 | ? | -1.8 | 2 | -9%
COc1ccc(-c2n[nH]c(C)c2-c2cnn(-c3ccccc3)c2)c(O)c1 | -62 | 0 | . | 38* | -1% | Arbovirus anti repeat=6.2*
CCOC(=O)N1CCC(NC(=O)C2CCCCN2S(=O)(=O)c2ccc(F)cc2)CC1 (stereo unspecified) | -33 | 2 | 0.0 | 5 | 4% | Arbovirus anti repeat=2
CC(C)CN(C(=O)CCC(=O)OC(C)C(=O)Nc1cccc(C#N)c1)c1c(N)n(CC(C)C)c(=O)[nH]c1=O (stereo unspecified) | . | -4 | -1.3 | . | .
Cc1cc(C)cc(C(=O)Oc2cc(C)[nH]c(=O)c2[N+](=O)[O-])c1 | . | 6 | -4.5 | . | .
CCOC(=O)Cc1c(C)nc2cc(-c3ccc(C(C)(C)C)cc3)[nH]n2c1=O | -11 | -5 | -2.6 | -12 | -4%
Brc1ccc(OCCOCCN2CCOCC2)cc1 | -31 | -1 | -0.1 | 6 | 0% | Arbovirus anti repeat=2
Nn1c(Cc2cccc3ccccc23)nnc1SCC(=O)NC1CCS(=O)(=O)C1 (stereo unspecified) | -37 | 0 | 0.7 | 11 | 0%
COCCN(CCOC)C(=O)C1CCCN(S(=O)(=O)c2ccc(NC(=O)OC)cc2)C1 (stereo unspecified) | . | 0 | -0.3 | . | -3%
N/C(=N\O)c1ccc(Oc2ccccc2Cl)c([N+](=O)[O-])c1 | . | -4 | 7.1 | . | 1%
C/C(=N\NC(=O)c1c(Br)c(C)nn1C)c1ccc(NC(=O)c2ccoc2C)cc1 | 0 | 6 | 4.0 | -6 | 33%
CN(C)S(=O)(=O)c1ccc(C(=O)Nc2cccnc2)cc1 | -15 | 2 | 0.5 | -2 | 1%
Cc1nnc(SCc2cccc(Oc3ccccc3)c2)n1N | 7 | -4 | 0.3 | 4 | 2%
Cc1ccc(S(=O)(=O)CCC(=O)Nc2nnc(-c3ccco3)o2)cc1 | . | 64 | -2.4 | . | .
NNc1ccc(Cl)nn1 | . | 1 | 2.8 | . | 1%
O=C(Nc1nnc(-c2cccc(F)c2)s1)Nc1ccccc1F | . | 1 | 0.4 | -1 | -5%
NC(=S)NC(c1ccccc1)c1ccncc1 (stereo unspecified) | . | -5 | 2.3 | . | .
CC(C)(C)NC(=O)CN(C(=O)C(=O)Nc1ccc2c(c1)OCCO2)C1CC1 | . | -13 | -3.5 | . | .
Cc1ccccc1NS(=O)(=O)c1ccc(Cl)cc1 | . | 5 | 0.2 | -8 | 0%
COc1ccc(-c2oc(NC(=O)CSc3nncn3C)c(C#N)c2-c2ccc(OC)cc2)cc1 | -14 | 0 | -0.3 | -20 | 6%
Cc1cc(C)c(OCCOCCN2CCCC2)c(C)c1 | . | -7 | 0.5 | . | .
CSCCC(NC(N)=O)C(=O)Nc1ccc(F)c(Cl)c1 (stereo unspecified) | . | -4 | 0.0 | . | -4%
Cc1ccc(NC(=O)CSc2nnc(-c3ccncc3)n2C)cc1C | -34 | -5 | 0.0 | 2 | 1%
COc1ccccc1OCCNC(=O)C1CC(=O)N(Cc2ccc(C)cc2)C1 (stereo unspecified) | . | -15 | 3.1 | . | .
CCN(CC)CCCNC(=O)CCC(=O)Nc1ccc2nc(N3CCC(C)CC3)cc(C)c2c1 | . | -2 | -8.6 | -13 | 10%
CC(=O)NCCNC(=O)CCNC(=O)c1ccc(Cl)cc1 | -11 | -8 | -1.2 | 11 | -8%
COc1ccc(CCN(C)C(=O)CSc2nnnn2C)cc1OC | . | -2 | -2.6 | 8 | -5%
O=C(CC1Nc2ccccc2NC1=O)Nc1ccccc1NC(=O)CC1Nc2ccccc2NC1=O (stereo unspecified) | . | 1 | -2.7 | -1 | 2%
